Six1-Eya2 inh: qHTS Assay for Inhibitors of the Six1/Eya2 Interaction. Homeobox protein SIX1 (Homo sapiens) + Protein phosphatase EYA2 (Homo sapiens), …. AlphaScreen GST-Six1/His-Eya2 binding, biochemical; hits give low values; control for the full effect not named in the record. activity change, % (no concentration beside the values). hit rate 0.56% among 360,000. AID 651725, 2012; in the data active = activity change below about -65%; inconclusive = about -30% to -65%; inactive = above about -30%; further: on the % scale 0 is the no-effect control and ±100 the full control effect; compound concentration not given in the record
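Compounds are tested against tagged Six1 and Eya2 proteins bridged by glutathione donor and nickel acceptor beads; after a one-hour incubation at 37 °C without light, AlphaScreen emission is recorded.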
TRPML1 ag: qHTS for Agonists of the Human Mucolipin Transient Receptor Potential 1 (TRPML1) | TRPML1-expressing cells, Ca2+ dye fluorescence, FDSS; host cell line not named in the record; reference of the full effect not given here | activation, % (concentration not given with the values) | hit rate 0.12% among 410,000 | AID 624414, 2012; in the data active = activation above about 50%; inconclusive = about 30% to 50%; inactive = below about 30%; further: 0% is about no effect; the text of the record puts the active cut at 80%
Target sequence (Q9GZU1 whole entry, looked up): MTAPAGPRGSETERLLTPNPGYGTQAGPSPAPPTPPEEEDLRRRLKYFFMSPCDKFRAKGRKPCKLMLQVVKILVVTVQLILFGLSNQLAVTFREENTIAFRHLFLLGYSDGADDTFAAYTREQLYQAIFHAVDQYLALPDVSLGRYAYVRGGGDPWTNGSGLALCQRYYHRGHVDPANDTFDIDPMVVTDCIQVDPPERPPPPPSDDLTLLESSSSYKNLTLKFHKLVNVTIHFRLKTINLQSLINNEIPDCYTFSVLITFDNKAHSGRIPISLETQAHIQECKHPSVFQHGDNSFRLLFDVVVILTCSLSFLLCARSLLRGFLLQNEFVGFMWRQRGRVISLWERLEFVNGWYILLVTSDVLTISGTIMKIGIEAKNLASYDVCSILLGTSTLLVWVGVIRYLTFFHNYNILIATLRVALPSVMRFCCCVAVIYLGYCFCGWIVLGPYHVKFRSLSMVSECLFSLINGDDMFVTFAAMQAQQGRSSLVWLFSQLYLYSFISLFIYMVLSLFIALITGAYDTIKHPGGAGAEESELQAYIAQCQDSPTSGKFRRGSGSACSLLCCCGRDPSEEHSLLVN
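Tet-induced TRPML1-DL cells, 1,500 per well, cultured overnight, were loaded with a no-wash Ca2+ dye for 45–90 min. Calcium fluorescence was recorded on the FDSS for 110 s after compound addition, before the EC80 agonist (4 uM 54-4) was added.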
TRPV1 PAM: HTS Assay for Compounds that Act as Potentiators of the Vanilloid Receptor 1 | TRPV1-expressing cells, Fluo-8 calcium influx, capsaicin EC20 potentiation; host cell line not named in the record; control for the full effect not named in the record | potentiation, % at 8.33 µM | hit rate 0.02% among 320,000 | AID 540277, 2011; active means potentiation above 80%; inconclusive means 30% to 80%; inactive means below 30%; further: 0% is about no effect
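Cells expressing TRPV1 were dye-loaded with Fluo-8 and read kinetically: 10 s baseline, 3 min after compound (agonist portion), then 2 min after EC20 capsaicin (allosteric enhancer portion). Calcium-bound dye fluorescence at 480/520 nm.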
CtBP-E1A blk: qHTS Assay for Inhibitors of the CtBP/E1A Interaction | CtBP / adenovirus E1A interaction (AlphaScreen) | hit rate 0.49% among 340,000 | AlphaScreen GST-E1A/His-CtBP binding, 1536-well; hits give low values; control for the full effect not named in the record | activity change, % (no concentration beside the values); in the data active means activity change below about -65%; inconclusive means about -30% to -65%; inactive means above about -30%; further: on the % scale 0 is the no-effect control and ±100 the full control effect; compound concentration not given in the record
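Homogeneous bead-based format: GST-tagged E1A captured on glutathione donor beads, His-tagged CtBP on nickel acceptor beads; compounds precede bead addition by 2 h at 37 °C.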
D2 potentiator: Beta-Arrestin HTS for Positive Allosteric Modulators of the Human D2 Dopamine Receptor: Potentiators; D(2) dopamine receptor (Homo sapiens), P14416; potentiation, % (test concentration not listed); hit rate 0.23% among 360,000; DiscoveRx D2 beta-arrestin cells, luminescence, 90 min; 100% = 57 uM dopamine signal; AID 624464, 2012; active = potentiation of 50% or more; inconclusive = 30% to 50%; inactive = 30% or less;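 further: compound concentration not given in the record; tested on top of an EC20 dose of dopamine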
Target sequence (P14416 whole entry, looked up): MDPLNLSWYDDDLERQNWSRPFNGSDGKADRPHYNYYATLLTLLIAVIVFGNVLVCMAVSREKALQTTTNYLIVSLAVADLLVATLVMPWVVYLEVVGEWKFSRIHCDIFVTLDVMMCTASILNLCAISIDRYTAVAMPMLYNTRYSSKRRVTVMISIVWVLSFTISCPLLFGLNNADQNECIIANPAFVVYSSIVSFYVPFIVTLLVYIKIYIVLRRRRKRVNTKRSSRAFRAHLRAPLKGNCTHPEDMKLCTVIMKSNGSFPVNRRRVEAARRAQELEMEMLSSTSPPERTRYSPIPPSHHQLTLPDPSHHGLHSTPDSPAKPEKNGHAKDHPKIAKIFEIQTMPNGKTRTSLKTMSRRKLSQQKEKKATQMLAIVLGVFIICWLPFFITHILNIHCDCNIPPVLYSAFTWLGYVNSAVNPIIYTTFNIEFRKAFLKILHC
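PathHunter D2 cells, attached overnight at 37 deg C, received compound in DMSO plus dopamine at EC20 (50 nM final) for 90 min at 37 deg C. Beta-arrestin recruitment was read as luminescence after 1 h with detection reagent at ambient temperature.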
TRPML1 inh: qHTS for Inhibitors of the Human Mucolipin Transient Receptor Potential 1 (TRPML1); TRPML1-inducible cells, Ca2+ dye fluorescence, FDSS; hits give low values; inhibition of EC80 agonist-evoked calcium signal; activity change, negative = inhibition, % (test concentration not listed); hit rate 0.02% among 390,000; in the data active means activity change below about -50%; inconclusive means about -30% to -50%; inactive means above about -30%;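 further: stimulus is agonist 54-4 at its EC80 concentration; on the % scale 0 is the no-effect control and ±100 the full control effect; compound concentration not given in the record; the text of the record puts the active cut at -80%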
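Calcium fluorescence in TRPML1-DL cells induced overnight with Tet: a 110 s read after compound pin addition, then a 110 s antagonist read after challenge with 54-4 at 4 uM final (EC80).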
The depositor's hits bear a star; ? = inconclusive; · = no result given; & = joins results of further samples. Rows were taken by chance. About 0.95% of those tested had a hit in this group.

Screens in order: Six1-Eya2 inh, TRPML1 ag, CtBP-E1A blk, D2 potentiator, TRPML1 inh, TRPV1 PAM
1. COc1c2c(nc3occc13)C(CC=C(C)C)(OC)C(O)CC2 (stereo unspecified)
  5, -0.2, 6, 5, 5, 2
2. CCOc1ccccc1NC(=O)c1cnc2n(c1=O)CCS2
  6, 0.7, 3, -10, -5, -13
3. Oc1cccnc1CN1CCOCC1
  -8, 0.8, -3, 4, -15, ·
4. CCCC(=O)Nc1ccc(Cl)c(NC(=S)NC(=O)c2cc3ccccc3o2)c1
  10, 0.7, 13, -10, -11, -1
5. Fc1ccccc1CN1CCN(c2ncccn2)CC1
  -12, -0.1, 2, ?, 2, -7
6. O=C(NCC1CCCO1)c1ccc2c(=O)n(Cc3cccc(Br)c3)c(=S)[nH]c2c1 (stereo unspecified)
  -6, -0.2, 1, 0, -3, -13
7. COC(=O)c1c(-c2ccc(OC)cc2)oc2ccc(-c3cc(OC)c(OC)c(OC)c3)cc12
  1, 0.0, 3, 6, 0, ·
8. COc1cccc(NC(=O)c2ccccc2-c2ccccc2)c1
  0, -0.3, 6, 3, -3, 17
9. Cc1ccc2cc(C=O)c(N3CCOCC3)nc2c1C
  2, 11, -2, -4, -2, -5
10. CC1(C(=O)NS(=O)(=O)C2CC2)CCCN(C(=O)c2ccc3ccccc3c2)C1 (stereo unspecified)
  8, -0.6, 4, -8, ·, ·
11. CCCc1c(-c2ccc(O)cc2)nn(-c2ccc(O)cc2)c1-c1ccc(O)cc1
  -1, -0.6, 1, 2, 2, -6
12. COc1ccc(-n2nc(C(=O)NCC(=O)NCc3cccc(F)c3)c3ccccc3c2=O)cc1Cl
  5, 0.1, 3, -2, -12, 30
13. COc1ccccc1N(CC(=O)N(c1ccccc1)C(C)C)S(=O)(=O)c1cccs1
  28, 2.0, 8, -1, 16, -8
14. COc1ccc(Oc2ccc(-c3ccn[nH]3)cc2)cc1
  -8, 2.9, 3, -17, -1, -13
15. Cc1c(NS(=O)(=O)c2ccc3c(c2)CCN3C(=O)C2CC2)c(=O)n(-c2ccccc2)n1C
  -2, -0.7, 8, -8, 21, 7
16. COc1ccc(CCNC(=O)CCCn2c(=S)[nH]c3cc4c(cc3c2=O)OCO4)cc1OC
  2, -0.2, 3, -4, -9, ·
17. COc1ccc(CNC(=O)C2COc3ccccc3O2)cc1 (stereo unspecified)
  4, -0.7, 6, 11, 6, -4
18. O=C(/C=C/c1ccco1)NC(=S)Nc1ccc(N2CCOCC2)c(Cl)c1
  0, -0.7, -1, 4, 0, -6
19. COc1ccc(C2(O)CCN(Cc3nnnn3Cc3ccc(C)cc3)CC2)cc1
  -1, 0.6, -6, -17, 7, 6
20. Cc1ccc[n+](CC(=O)Nc2ccc([N+](=O)[O-])cc2)c1
  -4, 0.4, ·, -59, -2, 11
21. Cn1c(=O)cc(OCC(=O)N2CCN(c3ccccc3F)CC2)c2ccccc21
  1, 0.9&-0.8, ·, -6, -2&-21, 15
22. Brc1ccc(CSc2nnc(-c3ccco3)o2)cc1
  9, 4.9, 49, 13, 2, -6
23. COc1ccccc1N(C)S(=O)(=O)c1ccc(Cl)c(C(=O)Nc2ccccc2N2CCOCC2)c1
  5, 0.7, 2, -2, 49, ·
24. CC(C)(C)C(=O)NC(=S)NNC(=O)c1ccc(-c2ccccc2)cc1
  -19, 80*, ·, -34, 4, -21
25. CC(=O)c1c(C)[nH]c(C(=O)N2CCCC(C)C2)c1C (stereo unspecified)
  0, -0.5, 7, -3, 15, -7
26. CCc1cccc(CC)c1NC(=O)CSc1nc2ccc(N3C(=O)C4C(C3=O)[C@H]3C=C[C@@H]4C3)cc2s1 (stereo partly specified)
  3, -0.4, 3, -4, 13, 10
27. CCC1/C(=N\O)CC(c2ccco2)NC1c1ccco1 (stereo unspecified)
  2, 1.0, 0, 8, 2, ·
28. Cc1ccc(S(=O)(=O)N2CCOCC2)cc1NC(=O)CSc1nnnn1C1CC1
  8, -0.5, 3, -9, 19, ·
29. NS(=O)(=O)c1ccc(CCNC(=O)COC(=O)CN2C(=O)C3CCCCC3C2=O)cc1 (stereo unspecified)
  4, -0.9, -7, 9, -7, 5
30. CNS(=O)(=O)c1ccc(NC(=O)C2CC(=O)N(c3ccc(Cl)cc3)C2)cc1 (stereo unspecified)
  5, 1.4, 18, -1, 3, 5
31. Cn1c(=O)n(C)c2cc(N3CCCCC3)c(NC(=O)c3cccc(Cl)c3)cc21
  8, -0.7, -2, -8, -10, -11
32. CN(C(=O)c1ccc(NC(=O)Cc2cccc(NC(=O)C3CCCN(C(=O)C4CCCC4)C3)c2)cc1)C1CCCC1 (stereo unspecified)
  -10, 0.1, -3, -2, -17, 10
33. CCN(CC)CCNS(=O)(=O)c1ccc(OC)c(Br)c1
  4, 1.2, 6, -15, 9, -4
34. COc1ccc(Cl)cc1C(=O)NNC(=O)c1cccc([N+](=O)[O-])c1
  3, 0.7, ·, -8, -12, -2
35. CCN(CC(=O)Nc1ccccc1C(F)(F)F)C(=O)c1ccccc1OCc1ccc(F)cc1
  2, 3.0, -3, -10, -2, ·
36. N/C(=N\OC(=O)CCCN1C(=O)c2ccccc2C1=O)c1ccc(Cl)cc1
  7, 1.2, -3, 10, -2, -16
37. Cc1ccc(Cl)cc1N1CCN(S(=O)(=O)N2CCCCC2)CC1
  2, 1.5, 23, -1, -5, -20
38. O=C(NCc1ccc(C(F)(F)F)cc1)c1cccc2c(-c3ccc(F)c(F)c3)coc12
  10, 1.2, 3, -13, 42, ·
39. COc1ccc(OC)c(N(CC(=O)N2CCCC2)S(=O)(=O)c2ccc(C)cc2)c1
  -4, -0.6, -11, -6, -11, -17
40. Cc1cc(C(=O)N/N=C2\CC(=O)CC(C)(C)C2)c2ccccc2n1
  1, 1.1, ·, -2, 1, 5
41. NNC(=O)C(=O)Nc1ccc(O)cc1
  -2, -1.0, ·, -4, -1, ·
42. O=[N+]([O-])c1ccc(S(=O)(=O)NCC(c2cccnc2)N2CCOCC2)cc1 (stereo unspecified)
  5, -0.8, ·, 1, 6, 10
43. NC(=O)c1nsc(C(=O)N(Cc2ccco2)C(C(=O)NC2CCCC2)c2ccc(O)cc2)c1N (stereo unspecified)
  0, -1.6, 0, 3, -1, 5
44. CN(C)c1cccc2c1c(NC(=O)c1ccc(Cl)cc1)nn2C
  -8, 6.6, 1, 4, 2, -1
45. Cc1nc(C(F)(F)F)ccc1C(=O)N1CCCC1(C)C(=O)NCC(C)C (stereo unspecified)
  7, -0.1, -5, ?, 1, ·
46. COc1ccc(C(=O)NCc2ccc(N3CCN(C(=O)OC(C)(C)C)CC3)cc2)cc1
  0, 1.8, 5, -3, 18, -10
47. Cc1c(N2C(=O)/C(=C/C3CC=CCC3)SC2=S)c(=O)n(-c2ccccc2)n1C (stereo unspecified)
  -2, 0.1, -9, -15, -16, -2
48. COc1ccc(-n2c(-c3cnccn3)n[nH]c2=S)cc1
  0, -0.4, 1, -5, -6, -21
49. CCn1c(C)c(C)c2cc(C(=O)Nc3cccc(Cl)c3)ccc21
  -1, 0.1, -6, -8, 14, -8
50. O=C(NCc1ccccc1)c1n[nH]nc1-c1ccccc1O
  3, -0.2, 0, -8, 1, 10
51. CCOC(=O)c1nn(-c2ccc(F)cc2)c(=O)c(C#N)c1C
  -11, 0.5, -20, 9, 5, 0
52. Cn1cccc1/C=C(\C#N)C(N)=S
  -30, 0.4, 1, -19, 10, 3
53. CCc1nnc2c(NCCc3ccc(OC)c(OC)c3)nc3ccccc3n12
  -4, -0.1&2.4, 2, 5, -17&-13, -7
54. COc1cc(C#Cc2ccc3cc(CCO)oc(=O)c3c2)cc(OC)c1
  -6, 1.3, -12, 5, -14, ·
55. O=[N+]([O-])c1ccccc1OCCOCCOc1cccc2cccnc12
  4, 1.5, 0, -5, 4, ?
56. CC1=CC(C)(C)N(C(=O)CN2C(=O)c3ccccc3C2=O)c2ccc(C)cc21
  0, 61*, 1, -3, -5, -9
57. CN(c1ccc(S(=O)(=O)N2CCOCC2)cn1)C1CCCCC1
  16, 1.0, 5, -6, -16, -24
58. COc1ccc(-n2nnnc2CNC(=O)C2CC(=O)N(c3ccc(Cl)cc3)C2)cc1 (stereo unspecified)
  1, 0.5, -6, 6, -2, 9
59. COc1ccccc1C(O)(C(=O)NNc1cccc(C)c1)c1ccccc1OC
  0, -0.7, 1, -1, -1, 0

A draw from above in order of number of heavy atoms, rising.
Screens in order: Six1-Eya2 inh, TRPML1 ag, CtBP-E1A blk, D2 potentiator, TRPML1 inh, TRPV1 PAM
52. Cn1cccc1/C=C(\C#N)C(N)=S
  -30, 0.4, 1, -19, 10, 3
3. Oc1cccnc1CN1CCOCC1
  -8, 0.8, -3, 4, -15, ·
25. CC(=O)c1c(C)[nH]c(C(=O)N2CCCC(C)C2)c1C (stereo unspecified)
  0, -0.5, 7, -3, 15, -7
20. Cc1ccc[n+](CC(=O)Nc2ccc([N+](=O)[O-])cc2)c1
  -4, 0.4, ·, -59, -2, 11
8. COc1cccc(NC(=O)c2ccccc2-c2ccccc2)c1
  0, -0.3, 6, 3, -3, 17
40. Cc1cc(C(=O)N/N=C2\CC(=O)CC(C)(C)C2)c2ccccc2n1
  1, 1.1, ·, -2, 1, 5
54. COc1cc(C#Cc2ccc3cc(CCO)oc(=O)c3c2)cc(OC)c1
  -6, 1.3, -12, 5, -14, ·
42. O=[N+]([O-])c1ccc(S(=O)(=O)NCC(c2cccnc2)N2CCOCC2)cc1 (stereo unspecified)
  5, -0.8, ·, 1, 6, 10
53. CCc1nnc2c(NCCc3ccc(OC)c(OC)c3)nc3ccccc3n12
  -4, -0.1&2.4, 2, 5, -17&-13, -7
28. Cc1ccc(S(=O)(=O)N2CCOCC2)cc1NC(=O)CSc1nnnn1C1CC1
  8, -0.5, 3, -9, 19, ·
46. COc1ccc(C(=O)NCc2ccc(N3CCN(C(=O)OC(C)(C)C)CC3)cc2)cc1
  0, 1.8, 5, -3, 18, -10
16. COc1ccc(CCNC(=O)CCCn2c(=S)[nH]c3cc4c(cc3c2=O)OCO4)cc1OC
  2, -0.2, 3, -4, -9, ·
43. NC(=O)c1nsc(C(=O)N(Cc2ccco2)C(C(=O)NC2CCCC2)c2ccc(O)cc2)c1N (stereo unspecified)
  0, -1.6, 0, 3, -1, 5
12. COc1ccc(-n2nc(C(=O)NCC(=O)NCc3cccc(F)c3)c3ccccc3c2=O)cc1Cl
  5, 0.1, 3, -2, -12, 30
32. CN(C(=O)c1ccc(NC(=O)Cc2cccc(NC(=O)C3CCCN(C(=O)C4CCCC4)C3)c2)cc1)C1CCCC1 (stereo unspecified)
  -10, 0.1, -3, -2, -17, 10
